Source: PubChem BioAssay
Cruzain noTriton – blocks cruzain activity in detergent-free assay. P25779. purified cruzain, Z-FR-AMC fluorescence, no detergent. Potency, µM, for inactives: max response, negative = inhibition, actives largely listed as inhibitors. 2.3% of 200,000 active;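 note: plate controls were enzyme without inhibitor for no effect and buffer without enzyme for full effect; nearly all actives have a fitted effect of over 40% in size; top concentration of the series not given in the record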
Target sequence (P25779 123-467 limits assumed): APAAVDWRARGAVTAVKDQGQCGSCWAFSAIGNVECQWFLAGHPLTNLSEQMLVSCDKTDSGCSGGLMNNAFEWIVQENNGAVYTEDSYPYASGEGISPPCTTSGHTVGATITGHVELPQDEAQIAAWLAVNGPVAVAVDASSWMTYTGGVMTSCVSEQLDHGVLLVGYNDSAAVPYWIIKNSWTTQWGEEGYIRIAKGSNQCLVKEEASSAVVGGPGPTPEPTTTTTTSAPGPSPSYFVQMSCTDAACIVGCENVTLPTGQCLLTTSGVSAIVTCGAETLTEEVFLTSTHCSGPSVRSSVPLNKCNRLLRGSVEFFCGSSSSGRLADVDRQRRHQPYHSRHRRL
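Detergent-free condition (0.00005% Triton X-100) in acetate buffer pH 5.5 with DTT. 1.5 nM enzyme and compound were pre-mixed 15 min, then 2 uM Z-FR-AMC substrate added; reaction progress from fluorescence change between first and third reads (60 s).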
Cruzain inh Det – blocks cruzain activity in presence of Triton detergent; P25779; purified cruzain, Z-FR-AMC fluorescence, 0.01% Triton; Potency, µM, for the others: max response, negative = inhibition, hits mostly inhibitors; 0.43% of 200,000 active;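 note: plate controls were neutral wells for no effect and buffer without enzyme for full effect; nearly all actives have a fitted effect of over 40% in size; top concentration of the series not given in the record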
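Sodium acetate buffer (100 mM, pH 5.5) containing 5 mM DTT and 0.01% Triton X-100 hosted 1.5 nM cruzain and test compound for 15 min at room temperature. Cleavage of 2 uM Z-FR-AMC was then tracked by fluorescence.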
StopGo reporter – FMDV 2A StopGo reporter, luciferase signal; human cells with a luciferase reporter of 2A StopGo recoding; control for the full effect not named in the record; Potency, µM (series often up to 57.9 µM), for the others: at the highest dose signal change, negative = less light; 1.2% of 410,000 active; active = well fitted falling curve with a large enough effect; inconclusive = small, poorly fitted or top-dose-only effect; inactive = no such curve, though single readings can be large or run the other way; tested in HEK293T cells; note: % is set by controls: 0 for no effect and ±100 for the full control effect; nearly all actives have a fitted effect of over 45% in size; luciferase light after 4 h
RE007 growth inh – less growth of the S. pombe RE007 Vpr strain; S. pombe RE007 Vpr strain, BacTiter-Glo ATP luminescence, 24 h; control for the full effect not named in the record; Potency, µM (doses to about 92.2 µM), inactives show top-dose activity change, negative = less growth; 0.21% of 360,000 active; AID 651644; active = well fitted falling curve with a large enough effect; inconclusive = small, poorly fitted or top-dose-only effect; inactive = no such curve, though single readings can be large or run the other way;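 note: % is set by controls: 0 for no effect and ±100 for the full control effect; nearly all actives have a fitted effect of over 50% in size; the assay follows cell death caused by Vpr and the record does not say whether a fall means rescue or toxicity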
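Fission yeast strain RE007, carrying one chromosomally integrated HIV-1 vpr copy, was seeded at OD 0.01 in PMG+AL medium with 23 nL pinned compound. After 24 h at 30 °C and 99% humidity, viability was read by BacTiter-Glo luminescence.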
LASV entry inh – blocks Lassa virus binding to or entry into cells; Lassa virus pseudotype entry inhibition, cell reporter; control for the full effect not named in the record; Potency, µM (titrated, usually from 37.9 µM), for inactives: at the top dose activity change, negative = inhibition, most hits filed as inhibitors; 1.2% of 300,000 active; AID 540256; active means well fitted inhibition curve with a large enough effect; inconclusive means small, poorly fitted or top-dose-only effect, or effect the other way; inactive means flat fitted curve, though single readings scatter; tested in HEK293 cells; note: % is set by controls: 0 for no effect and ±100 for the full control effect; nearly all actives have a fitted effect of over 50% in size; luciferase read-out
NS1 function inh – influenza NS1 inhibition | AID 2326 | S. cerevisiae slowed by influenza A NS1, growth recovery by OD600 | Potency, µM (doses to about 46.1 µM), inactives show top-dose activity, positive = more growth | 0.4% of 270,000 active; active means well fitted rising curve with a large enough effect; inconclusive means small, poorly fitted or top-dose-only effect; inactive means no such curve, though single readings can be large or run the other way; note: nearly all actives have a fitted effect of over 50% in size
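Read-out: OD600 growth recovery of NS1-expressing budding yeast. Cells grown overnight at 30C in -URA glucose medium, washed, resuspended and diluted 1:100 in 2% galactose assay medium, pH 6.0. Same strain lacking NS1 served as positive control.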
MARV entry inh – blocks Marburg virus binding to or entry into cells; Marburg virus pseudotyped entry inhibition, cell reporter; control for the full effect not named in the record; about a third of the inactives were read at about 46 µM; 1.8% of 300,000 active; Potency, µM (doses to about 37.8 µM), for inactives: at the highest dose activity change, negative = inhibition, usual class: inhibitors; AID 540276; active = well fitted inhibition curve with a large enough effect; inconclusive = small, poorly fitted or top-dose-only effect, or effect the other way; inactive = flat fitted curve, though single readings scatter; tested in HEK293 cells; about a fifth of its hits are not listed in these tables; note: % is set by controls: 0 for no effect and ±100 for the full control effect; luciferase read-out
SARS PLP yeast – blocks SARS-CoV papain-like protease in a yeast assay; 0.19% of 330,000 active; Potency, µM (series often up to 32.9 µM), inactives show at the highest dose activity, positive = growth rescue; AID 485353; S. cerevisiae expressing SARS-CoV PLpro, growth rescue; control for the full effect not named in the record; active means well fitted rising curve with a large enough effect; inconclusive means small, poorly fitted or top-dose-only effect; inactive means no such curve, though single readings can be large or run the other way; note: 0% is about no effect; nearly all actives have a fitted effect of over 55% in size; growth read by luminescence after 48 h
* = called active by the depositor; u = inconclusive; x = not tested or not shown; & = joins results of further samples; [ ] = another dose, or the depositor's remark. Unless noted, calls come from the whole dose curve; as a rule, active = well fitted curve in the direction sought with a large enough effect; inconclusive = small, poorly fitted or top-dose-only effect, or another doubt; inactive = no such curve, though single readings can be large; an effect the other way counts as inactive or inconclusive. Potency is the fitted concentration of half-maximal effect.

SMILES	Cruzain noTriton	Cruzain inh Det	StopGo reporter	RE007 growth inh	LASV entry inh	NS1 function inh	MARV entry inh	SARS PLP yeast
CCN(CC)CCNC(=O)Cn1cnc2sc(C)c(S(=O)(=O)N3CCC(C)CC3)c2c1=O	-10%	0.9%	6%&-1%	8%	-2%	1%	-6%&-1%[46.1 µM]	-5%
CCn1nc(C)cc1C(=O)N(C)C1CCCN(Cc2ccccc2F)C1 (stereo not given)	x	x	-13%	-13%	-13%	15%	3%	-3%
CC(C)(OC(=O)NC(=O)C(F)(F)F)C(C)(C)OC(=O)NC(=O)C(F)(F)F	x	x	-12%	2%	-3%	3%	u	2%
CC(=O)Nc1cccc(S(=O)(=O)N2CCCCCC2)c1	-2%	6.8%	9%	-8%	-5%	6%	-28%[46.1 µM]	4%
COc1ccc(-n2nc3ccc(N)cc3n2)cc1Cl	x	x	9%	-18%	x	28%	x	-4%
CCOC(=O)CCNC(=O)N1CCCC(N2CCN(c3ccc(OC)cc3)CC2)C1 (stereo not given)	x	x	-1%	9%	-4%	7%	4%	1%
Cc1ccc(-c2c(C(=O)N/N=C/c3cccnc3)nnn2-c2nonc2N)cc1	x	x	8%	6%	-1%[46.1 µM]	-19%	u	3%
O=C(NCc1ccccn1)c1ccc(Cn2cc(C(F)(F)F)ccc2=O)cc1	x	x	0%	-7%	14%[46.1 µM]	x	13%[46.1 µM]	3%
COc1ccc(NC(=O)c2ccco2)cc1NC(=O)c1ccccc1F	x	x	-12%	3%	2%	-10%	0%[46.1 µM]	0%
CCOc1ccc2c(C)c(Cl)c(=O)oc2c1	u	u	-2%	-25%	3%	-19%	10%	2%
COc1ccc(/C=N/NC(=O)CCCC(=O)NC2CCCCC2)cc1	-1%	2.4%	42%[activator]	-1%	0%	4%	-7%	3%
O=C(c1cccc(N2C(=O)C3C4C=CC(C4)C3C2=O)c1)N1CCN(c2ccccc2Cl)CC1 (stereo not given)	x	x	u	1%	x	7%	x	-3%
COc1ccc(N2CSC3=C(C#N)C(c4cc(OC)c(OC)cc4OC)CC(=O)N3C2)c(OC)c1 (stereo not given)	12%	u	-24%	0%	x	-45%	-7%	0%
CCOC(=O)c1c(C)[nH]c(C(=O)OCC(=O)Nc2cccnc2Cl)c1C	x	x	u	19%	2%[46.1 µM]	x	8%	5%
COc1ccc(CCNC(=O)CCNS(=O)(=O)c2ccc3c(c2)CCN3C(C)=O)cc1OC	2%	4.3%	-5%	-5%	-19%	-2%	-25%	-1%
CCCOc1ccc(N2C(=O)CC(SC(=NCC)NCC)C2=O)cc1 (stereo not given)	-12%	0.3%	-15%	13%	9%	10%	-8%	-1%
O=C(CCC1N=C2c3ccccc3N=C(SCc3ccc(Cl)cc3)N2C1=O)N1CCN(c2ccccc2)CC1 (stereo not given)	2%	-2.2%	-5%	x	-1%[46.1 µM]	x	u	x
CC(C)(C)S(=O)(=O)c1cnc(N2CCOCC2)nc1N	x	x	-7%	0%	3%	6%	u	0%
CCOc1ccc(Nc2nc3cc(S(=O)(=O)CC)ccc3o2)cc1	x	x	-7%	-18%	21%	1%	13%[46.1 µM]	1%
CC(=O)N1CCc2cc(S(=O)(=O)CCC(=O)N3CCN(C(=O)c4ccco4)CC3)ccc21	7%	-2.7%	1%	4%	u	1%	6%	10%
COc1ccc(C2NC(Cc3ccccc3)(C(=O)O)C3C(=O)N(c4ccccc4OC)C(=O)C23)cc1 (stereo not given)	x	x	8%	2%	13%	x	1%	-1%
CN1CCN(C(=O)CCCN2C(=O)/C(=C/c3ccccc3)SC2=S)CC1	x	x	-13%	2%	u	-14%	u	1%
COc1ccc(-c2cc(C(F)(F)F)n3nc(C(=O)OC(C)C)cc3n2)cc1	8%	0.9%	-23%	x	-1%[46.1 µM]	x	x	x
CN(C)S(=O)(=O)N(CC(=O)NCCSCc1ccc(Cl)cc1)c1ccccc1	x	x	-22%	-10%	10%[46.1 µM]	-1%	u	-1%
O=C(COC(=O)/C=C/c1ccc([N+](=O)[O-])cc1)NCc1ccc2c(c1)OCO2	x	x	18%	14%	x	5%	x	1%

A different layout for some results above:
SMILES | Cruzain noTriton | Cruzain inh Det | StopGo reporter | RE007 growth inh | LASV entry inh | NS1 function inh | MARV entry inh | SARS PLP yeast
CC(=O)Nc1cccc(S(=O)(=O)N2CCCCCC2)c1 | -2% | 6.8% | 9% | -8% | -5% | 6% | -28%[46.1 µM] | 4%
COc1ccc(-n2nc3ccc(N)cc3n2)cc1Cl | x | x | 9% | -18% | x | 28% | x | -4%

The results go on.
SMILES	Cruzain noTriton	Cruzain inh Det	StopGo reporter	RE007 growth inh	LASV entry inh	NS1 function inh	MARV entry inh	SARS PLP yeast
CCC(CC)C(=O)Nc1ccc(Sc2ccc([N+](=O)[O-])cc2)cc1	0%	-7.7%	u	0%	10%	-3%	-14%	5%
COC(=O)c1cccc(CN2C(=O)SC(Nc3ccc(Cl)cc3)C2=O)c1 (stereo not given)	-2%	-8.8%	-16%	x	6%[46.1 µM]	x	u	x
Cc1cc2n(n1)CCC(=O)N2Cc1ccc(C(=O)Nc2cc(Cl)ccc2C)cc1	u	-4.2%	0%	x	u	x	x	x
CC1CCN(C(=O)CSc2n[nH]c(-c3ccc(F)cc3)n2)CC1	-14%	3.7%	-32%	x	u	x	x	x
COc1ccc(-c2noc(C(C)NS(=O)(=O)c3ccc(NC(C)=O)cc3)n2)cc1 (stereo not given)	x	x	0%	-10%	-5%	5%	2%[46.1 µM]	2%
CC1(C(=O)NC2CCCCC2)Cc2ccccc2C(=O)N1Cc1ccccc1Cl (stereo not given)	10%	-1.4%	-12%	x	x	x	u	x
COc1cc2c(cc1OC)/C(=C/c1ccc(Cl)cc1)C(=O)OC2	-3%	-11%	40µM*	-1%	-15%	-13%	u	-11%
CC1Cc2ccccc2N1C(=S)NC(=O)c1cccc(Br)c1 (stereo not given)	-2%	-4.8%	45%[activator]	-22%	-2%	-38%	-19%	-63%
O=C(c1ccc(Br)cc1)N(Cc1ccco1)C1CCS(=O)(=O)C1 (stereo not given)	x	x	-12%	0%	18%[46.1 µM]	-17%	-12%[46.1 µM]	-2%
COc1ccc(CNC(=O)CSc2nnc(-c3ccc(NC(C)=O)cc3)n2C)cc1	-4%	7.2%	-7%	7%	-1%	10%	12%	x
CN1C(=S)SC(N2OC3C(=O)N(c4ccccc4)C(=O)C3C2c2ccc(Cl)cc2)C1(C)C (stereo not given)	1%	-2.4%	-6%	x	u	-5%	10%	11%
COc1ccc(/C=C/C(=O)OCc2csc(-c3ccccc3)n2)cc1OC	u	-5.4%	-13%	-6%	0%	19%	29%	-9%
c1coc(C2Nc3ccccc3C3OCCC23)c1 (stereo not given)	6%	1.3%	3%	-2%	11%	-10%	u	-5%
Cc1ccc(C(C)NC(=O)c2cc(C)oc2C)cc1 (stereo not given)	2%	6.0%	-16%	0%	3%	-142%	u	5%
Cc1ccc(CNC(=O)c2cccc(S(C)(=O)=O)c2)cc1	12%	6.3%	-13%	-15%	5%	6%	24%	-3%
CC1(C)Cc2c(sc(/N=C/N3CCCCC3)c2C#N)C(C)(C)N1	0%	-5.6%	-2%	2%	7%	3%	-5%	18%
COc1ccc(-c2csc(NC(=O)C3CCCO3)n2)cc1 (stereo not given)	1%	1.4%	0%	u	u	-7%	10%	1%
CCCC[N+]12C3C[C@H](C4[C@H](O)[C@]5(C[C@@H]41)c1ccccc1N(C)[C@@H]35)[C@H](CC)[C@H]2O (stereo not given in full)	x	x	-28%	8%	x	-2%	x	-1%
COc1ccc2[nH]c(=O)c(CN(Cc3ccc(C)cc3)Cc3nnnn3CC3CCCO3)cc2c1 (stereo not given)	u	-3.2%	0%	3%	-6%	-18%	0%&0%	1%
O=C(CN1C(=O)/C(=C/c2ccccc2)Sc2ccccc21)NCCCN1CCOCC1	x	x	-11%	-7%	x	1%	x	2%
Cc1cccc(N2C(=O)/C(=C/c3ccc(CN(CCC#N)S(C)(=O)=O)o3)C(=O)NC2=S)c1	u	-16%	-24%	-21%	-6%	10%	11%	-2%
COc1ccc(CNc2cc([N+](=O)[O-])ccc2OC)cc1	-10%	-4.6%	x	-11%	-1%	0%	-3%	0%
O=C(CS(=O)(=O)c1c[nH]c2ccccc12)N1CCCCCC1	x	x	0%	-9%	x	x	2%[46.1 µM]	-1%
O=C(OCC(=O)c1ccc(Cl)s1)c1ccc2ccccc2n1	-5%	-6.4%	-10%	-17%	25%	15%	-2%	6%
CC(=C/c1ccccc1)/C=N/NC(=O)c1nnn(-c2nonc2N)c1CN1CCC(C)CC1	x	x	12%	-6%	-28%[46.1 µM]	-14%	u	-3%

Remaining list, next part.
SMILES	Cruzain noTriton	Cruzain inh Det	StopGo reporter	RE007 growth inh	LASV entry inh	NS1 function inh	MARV entry inh	SARS PLP yeast
CCOC(=O)C1=C(COC(=O)/C=C/c2ccc(OCC)c(OC)c2)NC(=O)NC1C (stereo not given)	x	x	0%	-5%	u	x	-15%	-3%
COc1ccc(NC2=NCCC(=O)N2Cc2cccs2)cc1	9%	-3.7%	27%	8%	11%	-5%	-21%[46.1 µM]	-1%
COc1ccccc1CNC(=O)COC(=O)c1ccc(NC(N)=O)cc1	-7%	-0.8%	-21%	-1%	-2%	0%	-1%	1%
CN(CC(O)COc1c(F)cc(Br)cc1F)C1CCCCC1 (stereo not given)	4%	-0.1%	-7%	0%	u	-11%	u	-6%
O=C(CCc1ccccc1)Nc1cc2c(cc1Cl)OCCO2	0%	-2.5%	7%	1%	-25%	-6%	-15%	-5%
Cc1ccc(C)c(N2CCN(c3ccc4cc(S(=O)(=O)N5CCCCC5)ccc4n3)CC2)c1	x	x	-13%	11%	x	5%	x	4%
CCOc1ccc(CN(C(=O)c2oc3ccccc3c2C)C2CCS(=O)(=O)C2)cc1 (stereo not given)	u	-5.8%	-8%	16%	-12%[14.3 µM]	-59%	u	-3%
O=C1CCCCN1CC(=O)N1CCCC(Nc2ccc(F)cc2)C1 (stereo not given)	x	x	-10%	4%	7%[46.1 µM]	-1%	u	1%
Cc1ccccc1C(=O)NNC(=O)Cc1cccc2ccccc12	0%	-0.5%	x	-1%	6%	0%	-15%	3%
